HIV Env fusion: blocks HIV Env-driven cell-cell fusion | HeLa-JRFL Env/CEM21 cell fusion, luciferase | inhibition, % at 12.3 µM | 360,000 compounds, 1.1% hits;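 active = mean replicate inhibition score of at least 50 and every replicate individually at or above 50; inconclusive = only one of the two criteria met; inactive = mean below 50 and not all replicates reaching 50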;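 also: 0% = plate neutral controls and 100% = maraviroc near 300 nM; one replicate is shown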
CSC inhib: blocks cancer stem cells; cancer stem cell-like cells viability, luminescence; inhibition, % at 7.5 µM; 300,000 compounds, 1.1% hits; AID 2717;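 active = mean at 75% or more and at least half the replicates too; inconclusive = mean and replicates disagree; tested in HMLE shEcad cells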;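 also: 0% = median of negative and 100% = median of positive control wells; the first replicate is given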
Rce1 inhib: blocks yeast Ras-converting enzyme | Q03530 | yeast membranes, quenched prenylated peptide cleavage fluorescence | calls only | 290,000 compounds, 0.27% hits | AID 2563;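 active = fall in fluorescence gain of 50% or more versus controls, with final raw signal at or below 3038400; inconclusive = same 50% fall but final raw signal above 3038400; inactive = fall in fluorescence gain under 50%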;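 also: plate controls were neutral control wells for no effect and wells lacking membranes for full effect; tested at 10 µM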
Target sequence (Q03530 whole entry, looked up): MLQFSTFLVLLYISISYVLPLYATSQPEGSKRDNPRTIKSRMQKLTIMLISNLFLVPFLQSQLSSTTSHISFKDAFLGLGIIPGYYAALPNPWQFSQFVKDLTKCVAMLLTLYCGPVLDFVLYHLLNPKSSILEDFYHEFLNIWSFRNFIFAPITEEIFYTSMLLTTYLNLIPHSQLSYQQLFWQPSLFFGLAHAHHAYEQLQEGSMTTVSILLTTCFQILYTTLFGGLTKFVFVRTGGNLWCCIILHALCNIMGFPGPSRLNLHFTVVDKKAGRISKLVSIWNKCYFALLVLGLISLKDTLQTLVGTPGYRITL
MT1-MMP act inh: blocks activation of human MT1-MMP. P50281. HT1080 RFP-PRO-GFP cells, GFP/RFP ratio fluorescence, overnight; percent of plate control window, DMSO zero. GFP/RFP ratio change, % at 20 µM. 360,000 compounds, 0.061% hits. AID 651647;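 active = GFP/RFP ratio change of at least 30% with cell ATP level not reduced by more than half and red fluorescence within 50% of control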; also: strong numbers were not always called active
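Assay system: RFP-PRO-GFP reporter HT1080 cells; read-out basis: GFP/RFP fluorescence ratio; benchmarks: DMSO wells and RFP-L50D-GFP cells; doses: 20 µM single dose, 1% DMSO; schedule: overnight cell settling, then overnight compound exposure, 37 °C, 5% CO2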
eIF4H inh: inhibitors of RNA binding by human eIF4H; Q15056; eIF4H fluorescence polarization binding assay; inhibition, % at 35 µM; 290,000 compounds, 0.94% hits; AID 2012;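 active = 50% or more with normal probe brightness, or confirmed in later tests; inconclusive = above 50% with abnormal brightness, or retests that disagree; inactive = below 50% or failed in later tests; about a fifth of its hits are not listed in these tables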;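 also: calls also rest on retests at 20 µM and on dose response follow-up; 0% = protein and probe with vehicle and 100% = probe without protein; strong numbers were not always called active; many hits fall short of the cut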
Yeast UUG start: yeast start codon fidelity modulation | S. cerevisiae UUG-firefly luciferase reporter, luminescence/redox ratio | activity score, % at 18.7 µM | 350,000 compounds, 0.13% hits;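 active = replicate mean at a twofold rise or more, about +100% in these data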;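 also: firefly luciferase made from a UUG start codon reports start codon fidelity; reporter light over untreated wells divided by growth signal over untreated wells; some hits fall short of that in this replicate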
PABP FP inh: blocks human PABP binding to poly(A) RNA; inhibition, % at 35 µM; P11940; 290,000 compounds, 1% hits; fluorescence polarization;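 active = 50% or more with normal probe brightness, or confirmed in later tests; inconclusive = above 50% with abnormal brightness, or retests that disagree; inactive = below 50% or failed in later tests; about a fifth of its hits are not listed in these tables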;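 also: calls also rest on retests at 20 µM and on dose response follow-up; controls were probe without protein and protein plus probe with vehicle; some compounds called inactive have numbers as strong as hits; many hits fall short of the cut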
eIF4H inh retest: second read-out of eIF4H inh, no call of its own (marks repeat the call); inhibition, %; compound at 20 µM; confirmation average;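 mean of two retest wells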
PABP FP inh retest: further read-out of PABP FP inh, marked with its call; inhibition, %; compound at 20 µM; confirmation repeats;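 mean of two retest wells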
MT1-MMP act inh RFP: recorded beside MT1-MMP act inh, whose call it bears; RFP signal change, %; measured here: RFP expression control read;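 0 = vehicle wells; hits needed this value within 50% of zero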
* = called active by the depositor; i = inactive; u = inconclusive; x = no result given.

SMILES | HIV Env fusion | CSC inhib | Rce1 inhib | MT1-MMP act inh | MT1-MMP act inh RFP | eIF4H inh | Yeast UUG start | PABP FP inh | others
O=C(COC(=O)c1cc([N+](=O)[O-])ccc1NCCO)c1ccccc1 | 2 | -3 | i | 9 | 0 | 13 | -4 | 0
CCOc1cc(C(=O)NC(=S)Nc2nc(C)cc(C)n2)cc(OCC)c1OCC | 1 | -4 | i | 4 | 1 | 0 | -19 | -2
CC(C)C(=O)OC1CCS(=O)(=O)c2sccc21 (configuration not stated) | -34 | -8 | i | 1 | 6 | 2 | -7 | -1
COc1ccc(N(CC(=O)NCCSCc2ccco2)S(=O)(=O)c2ccc(C)cc2)cc1 | 9 | 1 | i | -5 | -8 | -15 | x | -3
CN1CC(=O)N(CC(=O)Nc2ccc(N(C)C)cc2)c2ccccc2C1=O | x | -12 | i | -9 | 4 | 8 | 3 | 10
CC1CCN(C2(O)C(=O)Nc3ccc([N+](=O)[O-])cc32)CC1 (configuration not stated) | x | 7 | i | -2 | -2 | 4 | -8 | -6
CC(=O)Nc1ccc(S(=O)(=O)NC(C(=O)O)C(C)O)cc1 (configuration not stated) | 3 | -12 | i | -1 | 4 | -6 | x | -8
O=C(NCc1ccccc1)c1cc(C2CCCN(C(=O)c3ccccc3)C2)on1 (configuration not stated) | 14 | x | x | -3 | 2 | x | -10 | x
Cc1ccc(S(=O)(=O)CCC(=O)OCC(=O)Nc2cccc(S(=O)(=O)N3CCCCC3)c2)cc1 | -27 | x | x | 3 | 4 | x | -5 | x
CCc1ccc(C(=O)NC(C(=O)NCC2CCCO2)C(C)C)cc1 (configuration not stated) | 19 | -4 | i | -1 | 4 | -10 | 0 | 3

Next section, starting with the last 3 of the part before.
SMILES | HIV Env fusion | CSC inhib | Rce1 inhib | MT1-MMP act inh | MT1-MMP act inh RFP | eIF4H inh | Yeast UUG start | PABP FP inh | others
O=C(NCc1ccccc1)c1cc(C2CCCN(C(=O)c3ccccc3)C2)on1 (configuration not stated) | 14 | x | x | -3 | 2 | x | -10 | x
Cc1ccc(S(=O)(=O)CCC(=O)OCC(=O)Nc2cccc(S(=O)(=O)N3CCCCC3)c2)cc1 | -27 | x | x | 3 | 4 | x | -5 | x
CCc1ccc(C(=O)NC(C(=O)NCC2CCCO2)C(C)C)cc1 (configuration not stated) | 19 | -4 | i | -1 | 4 | -10 | 0 | 3
Cc1ccc(C(=O)Nc2ncccc2C)cc1S(=O)(=O)N1CCOCC1 | -7 | -18 | x | 1 | 2 | x | -10 | x
CC(=O)NC(=S)Nc1ccc(NC(=O)COc2ccc(Cl)cc2)cc1 | -36 | 0 | i | 14 | 2 | 3 | 2 | 6
Cc1cc(C)n(CCN(C)C(=O)CCc2nnc(-c3ccc4c(c3)OCO4)o2)n1 | -12 | 5 | i | 2 | 6 | 0 | x | 1
O=c1cc(CN2CCN(c3ccccc3F)CC2)c2cc(O)c(-c3ccccc3)cc2o1 | x | -4 | i | 0 | -2 | 6 | -8 | 14
COc1ccc(C(C)=O)cc1CN1C(=O)C(C)ON=C1c1ncccc1C (configuration not stated) | -1 | x | x | 3 | 3 | x | -15 | x
O=C(CCCNC(=O)/C(=C\c1ccc(F)cc1)NC(=O)c1ccccc1)OCc1ccccc1 | x | 3 | i | 4 | 3 | -2 | -6 | -12
CC(Oc1ccccc1F)C(=O)NNC(=O)CC(C)c1ccccc1 (configuration not stated) | -8 | -8 | i | 3 | 2 | x | -5 | x
O=C(CCCCn1c(=O)c2ccccc2n(CC(=O)NC2CCCC2)c1=O)NCc1ccco1 | x | -16 | i | -2 | -3 | -3 | -14 | 0
CC(C)C(C)NC(=O)CSc1ccc(S(=O)(=O)N2CCOCC2)cn1 (configuration not stated) | -45 | x | x | 4 | 9 | x | -8 | x
CCOC(=O)C1CCCN(C(=O)c2cc3c(-c4cccc(OC)c4)nn(C)c3s2)C1 (configuration not stated) | x | 12 | x | 5 | -9 | 0 | -2 | 8
O=C(N=C1SC2CS(=O)(=O)CC2N1c1ccc(F)c(Cl)c1)C1CC1 (configuration not stated) | 0 | -2 | i | 0 | 2 | x | -26 | x
O=C1Nc2ccccc2N(O)N1c1ccc(S(=O)(=O)N2CCOCC2)cc1 | -83 | -4 | i | 3 | 6 | 8 | x | -11
C=CCn1c(SCc2c(C(=O)OC)sc(N)c2C(=O)OC)nnc1-c1ccc(Cl)cc1 | x | -2 | i | -2 | -6 | -4 | -20 | 2
CCOC(=O)Cc1nnc(NCc2ccccc2)c2ccccc12 | -23 | -13 | i | -3 | 1 | 2 | -15 | 13
CC(C)CN1C(=O)NC(NC(=O)c2cccnc2)(C(F)(F)F)C1=O (configuration not stated) | x | 4 | x | 4 | 1 | 7 | -13 | -4
Cc1ccc(-c2cc(C(=O)N/N=C/c3c[nH]c4ccccc34)n[nH]2)o1 | -2 | 30 | i | 0 | 0 | -10 | x | 59* | eIF4H inh retest=-11;PABP FP inh retest=124*
CCOC(=O)CSc1nc2ccccc2c(=O)n1CC1CCCO1 (configuration not stated) | -14 | x | i | -1 | 2 | -11 | -18 | 3
Cc1c(NC(=O)c2cccc(NC(=O)COc3ccccc3)c2)c(=O)n(-c2ccccc2)n1C | 1 | x | x | 3 | 0 | x | -12 | x
Cc1ccc(C(C(=O)NCC2CCCO2)N(C(=O)c2snc(C(N)=O)c2N)c2ccccc2F)o1 (configuration not stated) | 17 | 2 | i | 1 | 3 | -10 | -12 | -2
CCOC(=O)C1CCN(Cc2ccc(O)c(OC)c2)CC1 | -26 | 0 | i | 0 | 4 | 11 | -7 | 5
Cc1ccc(CSCC(=O)N(CCC(C)C)c2c(N)n(Cc3ccccc3)c(=O)[nH]c2=O)cc1 | x | -8 | i | -38 | -26 | x | -12 | x
Cn1ccc2c(N3CCCC3)cc3c(c21)C1CCC3C1 (configuration not stated) | -12 | x | x | 1 | 5 | x | -15 | x
c1ccc2oc(-c3ccc(Nc4nc(N5CCCC5)nc(N5CCOCC5)n4)cc3)nc2c1 | x | 4 | i | x | x | -7 | x | 8
CN(C(=O)c1ccc(NC(=O)Cc2ccc(NC(=O)C3CCN(C(=O)c4ccccc4)CC3)cc2)cc1)C1CCCC1 | -11 | x | x | -2 | 1 | x | -3 | x
CCOC(=O)C1=CN(Cc2ccco2)S(=O)(=O)NC1c1ccc(Br)cc1F (configuration not stated) | 7 | x | x | 1 | 0 | x | -7 | x
O=C(c1cc2ccc([N+](=O)[O-])cc2oc1=O)N1CCOCC1 | 3 | -4 | i | 3 | 6 | -12 | -2 | -6
Cc1cc(=O)oc2cc(OCC(=O)OCC(=O)Nc3ccc(C(C)C)cc3)ccc12 | 2 | 1 | i | 1 | 4 | -5 | x | u
CCOC(=O)C1CCN(C(=O)CN2C(=O)c3ccccc3S2(=O)=O)CC1 | 23 | -10 | i | 2 | 1 | x | x | x
O=C(NC(=S)Nc1ccc(F)cc1)C1CCCCC1 | -13 | -5 | i | -6 | -6 | 6 | -16 | 0
CCN(C(=O)Cn1c(=O)oc2ccccc21)c1c(N)n(Cc2ccccc2)c(=O)[nH]c1=O | -2 | -9 | x | 5 | -6 | x | -12 | x
O=C(c1cc(COc2cccc(C(F)(F)F)c2)on1)N1C[C@@H]2CCC[C@H]1C2 | -4 | 4 | i | 0 | -13 | 1 | 4 | -6
CN1C(=O)C2(C(C#N)=C(N)N(c3cc(Cl)cc(Cl)c3)C3=C2C(=O)CC(C)(C)C3)c2ccccc21 (configuration not stated) | x | -8 | i | -6 | -4 | -10 | -17 | -2
CCS(=O)(=O)NCCc1csc(-c2cccnc2)n1 | 14 | -18 | i | -1 | 2 | -13 | 6 | -5
O=C(CN1C(=O)c2ccccc2C1=O)N1CCN=C1c1ccccc1 | 4 | 1 | i | 6 | 1 | 0 | -15 | -6
COC(=O)c1sccc1NC(=O)C1CCCCC1C(=O)O (configuration not stated) | -5 | -6 | i | 2 | 0 | 43 | x | -13
CNC(=O)c1sc(-c2ccccc2)nc1C | x | -16 | i | 2 | 1 | -4 | -7 | -4
COC(=O)CNC(=O)C12CC3CC(C1)CC(c1ccc(C)cc1)(C3)C2 | -21 | -19 | i | 2 | 8 | 4 | 22 | u
CCC(C)[C@H](NC(=O)NCCC1=CCCCC1)C(=O)OC (some centres not stated) | 17 | 15 | i | 1 | 1 | -5 | -4 | 8
COc1ccc(N2C(=O)NC(NC(=O)C(C)(C)C)(C(F)(F)F)C2=O)cc1 (configuration not stated) | -10 | -11 | i | 0 | 4 | 3 | -11 | 11
O=[N+]([O-])c1ncccc1Oc1nc(-c2cccnc2)nc2ccccc12 | -6 | -1 | i | -2 | -4 | -4 | x | 14
CCOC(=O)C1=C(CN2CCN(C(=O)c3ccco3)CC2)NC(=O)NC1c1ccc(OC(C)C)cc1 (configuration not stated) | 19 | -1 | i | 1 | -3 | -1 | -14 | -5
NS(=O)(=O)c1ccc(NC(=O)c2ccc(S(=O)(=O)N3CCOCC3)o2)cc1 | 3 | -8 | i | 4 | 2 | 1 | -10 | 0
CCC(=O)c1ccc(OCC(=O)O)c(OC)c1 | -4 | -9 | i | 1 | 3 | 2 | -7 | -2
CCCCOc1c(Br)cc(/C=N/O)cc1OCC | -5 | 5 | i | -1 | -10 | -5 | -1 | -3
CSc1ccccc1C(=O)Nc1nc2ccccc2[nH]1 | -34 | 1 | i | 15 | 1 | 5 | -17 | -3
CC(Oc1ccc(Cl)cc1)c1ccnn1S(=O)(=O)c1ccccc1 (configuration not stated) | u | 27 | x | -1 | -5 | 17 | -5 | -3
O=C(CN1CCOCC1)N1CCOCC1 | 2 | x | x | 1 | 7 | x | -18 | x
OCCN(Cc1ccccc1)Cc1ccc(Cl)cc1Cl | 16 | 6 | i | -6 | -5 | 3 | -8 | 4
CC1=C(C(=O)Nc2cccc(C(=O)NCC(C)c3ccccc3)c2)SCCO1 (configuration not stated) | -15 | x | x | 3 | -2 | x | 10 | x
O=C(NNC(=O)c1cc(-c2cccnc2)nc2ccccc12)Nc1ccc(Cl)cc1 | 20 | 50 | i | -7 | -13 | 3 | x | 26
(continued)
SMILES | HIV Env fusion | CSC inhib | Rce1 inhib | MT1-MMP act inh | MT1-MMP act inh RFP | eIF4H inh | Yeast UUG start | PABP FP inh | others
CCN(CC)S(=O)(=O)c1ccc(F)cc1 | -20 | x | i | 5 | -1 | -4 | x | 8
CCCOc1ccc(C(=O)NNC(=O)CCNC(=O)c2ccccc2Cl)cc1OC | x | x | i | -3 | -1 | x | -9 | x
O=C(Nc1ccccc1)OCCOc1cccc(Br)c1 | 9 | 18 | i | 1 | 0 | -11 | -15 | -12
O=C(C1CCCN(Cc2ccc(Cl)cc2)C1)N1CCCCC1 (configuration not stated) | -2 | -6 | i | 2 | 0 | 5 | 3 | -1
Cc1ccc(-n2[nH]c(C)c(/C=N/NC(=O)c3ccc(O)cc3O)c2=O)cc1 | x | 39 | i | 10 | -3 | 7 | -24 | 12
Cc1nc(C)c(-c2ccc(SCC(=O)Nc3ccc(F)cc3F)nn2)s1 | 15 | -2 | i | 0 | -14 | -15 | -19 | 7
O=C(COc1ccccc1)NC1CCS(=O)(=O)C1 (configuration not stated) | 15 | 0 | i | 2 | 4 | -9 | -19 | 4
COc1ccc(CNC(=O)C2CCCN(S(=O)(=O)c3c(C)nn(C)c3C)C2)cc1 (configuration not stated) | 3 | 5 | i | -3 | 0 | 5 | 14 | 7
O=C(Nc1ccc(F)c(Cl)c1)C1CCN(c2ncnc3c2nc2n3CCCCC2)CC1 | 8 | -15 | i | 4 | -15 | 57 | -21 | 8 | eIF4H inh retest=14;PABP FP inh retest=3
